Screens from PubChem BioAssay.
FPR = small-molecule ligands of human FPR – U937-FPR cells, fMLFK-FITC, flow cytometry, primary screen (AID 362); inhibition, %; 4,300 compounds, 1% hits; U937-FPR cells, fMLFK-FITC displacement, flow cytometry; active compounds read high; test concentration not given here; most inactive calls were filed without a number and no value below 0 was filed;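 active = inhibition of labelled peptide binding to the formyl peptide receptor of at least 65%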;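 also: plate controls were buffer control wells for no effect and unlabeled fMLFF blocking peptide for full effect; higher means less cell fluorescence so more probe displaced; part of the set was picked by virtual screening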
* hit, by the source's call; i = inactive.

SMILES	FPR
COC(=O)C1C(=O)C2=C(CC1C)NC(C)=C(C(=O)OC1CCCC1)C2c1c(F)cccc1Cl (stereo not given)	0
CC(=O)N1CCc2cc(S(=O)(=O)NC(C(=O)NC3CCCCCC3)C(C)C)ccc21 (stereo not given)	i
COc1ccccc1NC(=O)CSc1nc2ccccc2c(=O)n1CC1CCC(C(=O)NCc2ccco2)CC1 (stereo not given)	8
CC(C)Cn1cc(C(=O)NCCCN2CCN(c3ccccc3F)CC2)c2c3ccccc3n(C)c2c1=O	3
CCOC(=O)CSc1nc2c(c(=O)n1C1CCOC(C)(C)C1)C1(CCCC1)Cc1ccccc1-2 (stereo not given)	1
O=C(O)CNc1ncnc2sc3c(c12)CCCC3	i
Cc1cc(O)c(C(C)C)cc1N1C(=O)c2ccc(F)cc2C1=O	1
CCNC(=O)N1c2ccc(OC)cc2C(C)=CC1(C)C	i
CCOC(=O)C1=C(C)NC2=C(C(=O)C(C(=O)OC)C(C)C2)C1c1ccc(N(CC)CC)cc1 (stereo not given)	30
COc1ccc(OC)c(C=C2C(=O)OC(C)(C(C)(C)C)OC2=O)c1 (stereo not given)	i
CCOC(=O)N1CCN(C(=O)CSc2c3c(nc4ccccc24)CCCC3)CC1	i
O=C(c1cnccn1)N(CC1CCCO1)C1(C(=O)NC2CCCC2)CCCCC1 (stereo not given)	7
COc1ccc(C2C(C(=O)OCC(C)C)=C(C)NC3=C2C(=O)CC(c2ccccc2)C3)cc1Br (stereo not given)	i
CC(=O)Nc1ccc(S(=O)(=O)N2CCCCC2C(=O)O)cc1 (stereo not given)	i
O=C1C2C(C(=O)N1Cc1ccccc1)C1C(c3ccccc3)=C(c3ccccc3)C2C2C(=O)N(Cc3ccccc3)C(=O)C21 (stereo not given)	i
O=C(NCc1ccco1)C1CCC(CNS(=O)(=O)c2ccc(Cl)cc2)CC1 (stereo not given)	i
O=C(CSc1nc2ccccc2c(=O)n1CC1CCC(C(=O)NCc2ccco2)CC1)Nc1ccccc1C(F)(F)F (stereo not given)	i
O=C(O)C1CCC(CN(Cc2ccc(Cl)cc2)S(=O)(=O)c2ccc([N+](=O)[O-])cc2)CC1 (stereo not given)	i
CCOCCCNC(=O)C1CCC(CNS(=O)(=O)c2ccc(F)cc2)CC1 (stereo not given)	i
COCCn1cc(C(=O)N2CCC(C)CC2)c2c3ccccc3n(C)c2c1=O	4
COCCCNc1ccc(N2C(=O)C3C4C=CC(C4)C3C2=O)cc1[N+](=O)[O-] (stereo not given)	i
CCOc1ccc(C2C3=C(CC(C)(C)CC3=O)Nc3nc(C(F)(F)F)nn32)cc1OC (stereo not given)	9
COc1ccc(C2NC(=O)NC(C)=C2C(=O)OCCC(C)C)cc1 (stereo not given)	i
COc1cc2c(C(=O)N(C)c3cc(Cl)ccc3C)cn(CC(C)C)c(=O)c2cc1OC	6
CC(C)C(C(=O)O)N1C(=O)c2cccc([N+](=O)[O-])c2C1=O (stereo not given)	18
CC(=O)N1CCc2cc(S(=O)(=O)NC(C(=O)NCc3ccc4c(c3)OCO4)C(C)C)ccc21 (stereo not given)	i
CCOC(=O)N1CCN(C(=O)C2CCC(CNS(=O)(=O)c3ccc(Cl)cc3)CC2)CC1 (stereo not given)	12
COc1cc2c(C(=O)N3CCC(C(N)=O)CC3)cn(CC(C)C)c(=O)c2cc1OC	i
CC(C)Cn1c(CN2CCN(Cc3ccccc3)CC2)nc2c1c(=O)n(C)c(=O)n2C	i
COc1cc(OC)c(OC)cc1CN1CCCC(C(=O)N2CCCCC2)C1 (stereo not given)	i
O=C(CSc1nc2ccccc2c(=O)n1CC1CCC(C(=O)NCc2ccco2)CC1)NCCc1ccccc1 (stereo not given)	14
O=c1c(Oc2ccccc2Br)c(C(F)(F)F)oc2c(CN3CCCCCC3)c(O)ccc12	46
COc1ccc(C2(CNC(=O)Cc3ccccc3)CCCC2)cc1OC	i
CC(C)Cn1cc(C(=O)NCCCN2CCC(Cc3ccccc3)CC2)c2c3ccccc3n(C)c2c1=O	1
O=C(CSc1c2c(nc3ccccc13)CCCC2)N1CCCCC1	i
CC1=CC(C)C(C(=O)O)C(C(=O)N2CCN(C)CC2)C1 (stereo not given)	9
Cc1ccc(S(=O)(=O)NCC2CCC(C(=O)NCCN3CCCC3)CC2)cc1 (stereo not given)	i
CCc1ccc(-c2csc(NC(=O)C3C4CCC(C4)C3C(=O)O)n2)cc1 (stereo not given)	i
CCOC(=O)C1=C(C(F)(F)F)Nc2nnnn2C1c1cccc(OC)c1OC (stereo not given)	25
CCC(C)(C(=O)NC1CCCC1)N(Cc1ccco1)C(=O)C1CCC(=O)N1 (stereo not given)	9
CCOc1cc(C(C2=C(O)CC(C)(C)CC2=O)C2=C(O)CC(C)(C)CC2=O)ccc1OC(=O)c1cccc(OC)c1	80*
Cc1cc2nnn(-c3ncnc4sc5c(c34)CCCC5)c2cc1C	i
OC(CC#CCN(Cc1ccccc1)Cc1ccccc1)(c1ccccc1)C1CCCC1 (stereo not given)	i
CN1C(=O)CC(c2ccc([N+](=O)[O-])cc2)C2=C1CC(C)(C)CC2=O (stereo not given)	i
COC(=O)Oc1ccc2c(=O)c(Oc3cccc(C)c3)c(C(F)(F)F)oc2c1	9
O=C(NO)C1CCC(CN(Cc2cccc(Br)c2)S(=O)(=O)c2ccc3c(c2)OCCO3)CC1 (stereo not given)	i
Cc1nn(Cc2ccc(Cl)cc2)c(C)c1NC(=O)C1CC=CCC1C(=O)O (stereo not given)	3
CCOc1ccc2c(c1)C(C)=CC(C)(C)N2C(=O)NC1CCCCC1	i
CCCCN(CCCC)S(=O)(=O)c1cccc2nonc12	i
O=C(NC1CCCCCCC1)C1CCC(CNS(=O)(=O)c2ccc(Cl)cc2)CC1 (stereo not given)	20
COc1ccc(NC(=O)C(c2cc3c(cc2[N+](=O)[O-])OCO3)N2CCCC(C)C2)cc1 (stereo not given)	0
CC(=O)Nc1ccc(S(=O)(=O)NCC2CCC(C(=O)NCCCN3CCN(c4cccc(Cl)c4)CC3)CC2)cc1 (stereo not given)	i
C/C=C/COC(=O)C1=C(C)NC(=O)NC1c1ccc([N+](=O)[O-])cc1 (stereo not given)	4
CCn1c(NC(=O)C23CC4CC(C2)CC(n2cnc(Cl)n2)(C4)C3)nc2ccccc21	23
Cc1ccc(S(=O)(=O)N2CC3(C(C)C)CN(S(=O)(=O)c4ccc(C)cc4)CC(C(C)C)(C2)C3=O)cc1	i
Oc1ccc2c(c1)c1c3n2CCNC3CCC1 (stereo not given)	i
CCCCCCc1cc2c3c(c(=O)oc2cc1OCC(=O)N(CC)CC)CCC3	5
CCc1c(C)sc(NC(NC(=O)OC)(C(=O)OC)C(F)(F)F)c1C#N (stereo not given)	i
CCCCc1cc(=O)oc2c(C)c(OC3CCCCC3=O)ccc12 (stereo not given)	i
COc1ccc(S(=O)(=O)NC(CC(=O)N2CCCCC2)C(C)C)cc1 (stereo not given)	i

Exported in markdown: part of the list above.
| compound | FPR |
| --- | --- |
| O=C(NO)C1CCC(CN(Cc2cccc(Br)c2)S(=O)(=O)c2ccc3c(c2)OCCO3)CC1 (stereo not given) | i |
| Cc1nn(Cc2ccc(Cl)cc2)c(C)c1NC(=O)C1CC=CCC1C(=O)O (stereo not given) | 3 |
| CCOc1ccc2c(c1)C(C)=CC(C)(C)N2C(=O)NC1CCCCC1 | i |
| CCCCN(CCCC)S(=O)(=O)c1cccc2nonc12 | i |
| O=C(NC1CCCCCCC1)C1CCC(CNS(=O)(=O)c2ccc(Cl)cc2)CC1 (stereo not given) | 20 |
| COc1ccc(NC(=O)C(c2cc3c(cc2[N+](=O)[O-])OCO3)N2CCCC(C)C2)cc1 (stereo not given) | 0 |
| CC(=O)Nc1ccc(S(=O)(=O)NCC2CCC(C(=O)NCCCN3CCN(c4cccc(Cl)c4)CC3)CC2)cc1 (stereo not given) | i |
| C/C=C/COC(=O)C1=C(C)NC(=O)NC1c1ccc([N+](=O)[O-])cc1 (stereo not given) | 4 |
| CCn1c(NC(=O)C23CC4CC(C2)CC(n2cnc(Cl)n2)(C4)C3)nc2ccccc21 | 23 |
| Cc1ccc(S(=O)(=O)N2CC3(C(C)C)CN(S(=O)(=O)c4ccc(C)cc4)CC(C(C)C)(C2)C3=O)cc1 | i |
| Oc1ccc2c(c1)c1c3n2CCNC3CCC1 (stereo not given) | i |
| CCCCCCc1cc2c3c(c(=O)oc2cc1OCC(=O)N(CC)CC)CCC3 | 5 |
| CCc1c(C)sc(NC(NC(=O)OC)(C(=O)OC)C(F)(F)F)c1C#N (stereo not given) | i |
| CCCCc1cc(=O)oc2c(C)c(OC3CCCCC3=O)ccc12 (stereo not given) | i |
| COc1ccc(S(=O)(=O)NC(CC(=O)N2CCCCC2)C(C)C)cc1 (stereo not given) | i |

Remaining list, next part:
SMILES	FPR
COc1ccc(NC(=O)C(c2cc3c(cc2[N+](=O)[O-])OCO3)N2CCCCC2)cc1 (stereo not given)	8
C#CCOc1c(Br)cc(C2C3=C(CC(C)(C)CC3=O)N(CC(=O)O)C3=C2C(=O)CC(C)(C)C3)cc1OC	i
CCC(C)OC(=O)C1=C(C)NC2=C(C(=O)C(C(=O)OC)C(C)C2)C1c1cccs1 (stereo not given)	4
Cc1cccc(N2CCN(C(=O)C3CCC(CNS(=O)(=O)c4ccccc4)CC3)CC2C)c1 (stereo not given)	i
CC1CCCN(Cc2c(O)ccc3c(=O)c(Oc4ccc(C(C)(C)C)cc4)c(C(F)(F)F)oc23)C1 (stereo not given)	i
CCCCC(C(=O)Nc1ccccc1OC)N1C(=O)c2ccccc2C1=O (stereo not given)	i
CCCOc1ccc(C2NC(=O)NC(C)=C2C(=O)OC2CCCC2)cc1 (stereo not given)	i
O=C(NCc1cccnc1)C1CCC(CNS(=O)(=O)c2ccccc2)CC1 (stereo not given)	i
O=C(O)C1C2CCC(C2)C1C(=O)Nc1nc(-c2ccc(Br)cc2)cs1 (stereo not given)	i
CC1CCCN(Cc2c(O)ccc3c(=O)c(-c4ccccc4Cl)c(C(F)(F)F)oc23)C1 (stereo not given)	34
O=c1c(Oc2ccccc2)c(C(F)(F)F)oc2c3c(ccc12)OCO3	30
Cc1cc([N+](=O)[O-])cc2c1NC(C(=O)O)C1CC=CC21 (stereo not given)	9
NC(=O)c1ccccc1NC(=O)[C@@H]1CCCC[C@@H]1C(=O)O	20
CC1(C)CC(=O)C2=C(C1)OC(N)=C(C#N)C21C(=O)N(CC(N)=O)c2ccccc21 (stereo not given)	i
O=C1/C(=C/c2cccnc2)CCC/C1=C\c1cccnc1	i
CCOc1cc2c(cc1OCC)C1C(C(=O)NCCC3=CCCCC3)c3ccccc3C(=O)N1CC2 (stereo not given)	8
COC(=O)c1c(C)oc2ccc(N(C(=O)C3CCCCC3)S(=O)(=O)c3ccc(C)cc3C)cc12	9
CCc1c(C)sc(NC(NC(=O)OC)(C(F)(F)F)C(F)(F)F)c1C#N	i
COC(=O)C1C(=O)C2=C(CC1C)NC(C)=C(C(=O)OC1CCCCCC1)C2c1ccc(Cl)cc1 (stereo not given)	i
COCCOC(=O)C1=C(C)NC2=C(C(=O)C(C(=O)OC)C(C)C2)C1c1ccc(O)cc1 (stereo not given)	32
CCOC(=O)C1C(c2cccc([N+](=O)[O-])c2)NC(=O)NC1(O)C(F)(F)F (stereo not given)	i
CC(C)Sc1nc2c(c(=O)n1C1CCOC(C)(C)C1)C1(CCCCC1)Cc1ccccc1-2 (stereo not given)	i
O=C(O)c1ccc2c(c1)C1C=CCC1C(c1cccc([N+](=O)[O-])c1)N2 (stereo not given)	i
COc1cc2c(C(=O)NCCCN3CCN(c4cccc(Cl)c4)CC3)cn(CC(C)C)c(=O)c2cc1OC	i
COc1cccc(NC(=O)C2CCC(CNS(=O)(=O)c3cccs3)CC2)c1 (stereo not given)	14
CC1(C)CC(n2c(SCC#N)nc3c(c2=O)C2(CCCC2)Cc2ccccc2-3)CCO1 (stereo not given)	i
Cc1ccc(S(=O)(=O)NCC2CCC(C(=O)NCc3cccs3)CC2)cc1 (stereo not given)	0
O=c1cc(O)c2sc3nc(C4CC4)cc(C(F)(F)F)c3c2[nH]1	i
CC(=O)N1CCc2cc(S(=O)(=O)NC(C(=O)NCc3ccccc3)C(C)C)ccc21 (stereo not given)	i
COc1ccc(C(=O)COC(=O)C(C(C)C)N2C(=O)C3C4CCC(C4)C3C2=O)cc1 (stereo not given)	i
CC(=O)Nc1ccc(S(=O)(=O)NC(CC(=O)N2CCOCC2)C(C)C)cc1 (stereo not given)	i
COC(=O)Cc1[nH]nc2c1C(C(C)C)C(C#N)=C(N)O2 (stereo not given)	2
CCOC(=O)C1=C(C)NC2=C(C(=O)C(C(=O)OC)C(C)C2)C1c1ccc2c(c1)c1ccccc1n2CC (stereo not given)	3
O=C(CSc1nc2ccsc2c(=O)n1CC1CCC(C(=O)O)CC1)c1ccc(F)cc1 (stereo not given)	i
Cc1ccc(N(C(=O)C2CCC(=O)N2)C2(C(=O)NC3CCCCC3)CCCCC2)cc1 (stereo not given)	8
CCCCCn1c(CN(C)Cc2ccccc2)nc2c1c(=O)n(C)c(=O)n2C	i
CCSCCOC(=O)C1=C(C)NC2=C(C(=O)C(C(=O)OC)C(C)C2)C1c1ccccc1OCc1ccccc1 (stereo not given)	2
CCSCCOC(=O)C1=C(C)NC2=C(C(=O)C(C(=O)OC)C(C)C2)C1c1cccc(OC)c1 (stereo not given)	40
CCOc1ccc(/C=C2/CCC/C(=C\c3ccc(OCC)c(OCC)c3)C2=O)cc1OCC	i
CCOC(=O)c1cc2c(=O)n3ccccc3nc2n(CC(C)C)c1=NC(=O)c1cccc([N+](=O)[O-])c1	i
COc1ccc(C2C3=C(CC(C)(C)CC3=O)OC3=C2C(=O)CC(C)(C)C3)cc1CSc1nc2ccccc2o1	i
COc1ccc(C2(CNC(=O)c3ccccc3)CCOCC2)cc1	i
C#CCOc1c(I)cc(C2C3=C(CC(C)(C)CC3=O)OC3=C2C(=O)CC(C)(C)C3)cc1OC	i
Cc1c(O)ccc2c3c(c(=O)oc12)CCCC3	i
CC1(C)CC(n2c(SCC(=O)c3ccc(Cl)cc3)nc3c(c2=O)C2(CCCC2)Cc2ccccc2-3)CCO1 (stereo not given)	i
O=C1C2C3C=CC(C3)C2C(=O)N1c1ccc(NCCc2ccccc2F)c([N+](=O)[O-])c1 (stereo not given)	i

Not all compounds are listed; count on the stated rates, not on these rows.
